Screening data (PubChem BioAssay)
Mtb hypoxia rep – reduces hypoxia-regulated biosensor signal in M. tuberculosis; fluorescence inhibition, % (test concentration not listed); M. tuberculosis hypoxia-regulated fluorescent reporter, fluorescence; 300,000 tested, 0.1% active;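 active = 35 to 45% if threefold the growth effect, above 45% if 1.5-fold the growth effect; inactive = the rest, general growth blockers included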;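 also: wells of about 50 µL received 100 nL stock; 0% = vehicle wells and 100% = reference inhibitor wells; whole bacteria with a GFP reporter of the hypoxia response; strong numbers were not always called active; many hits fall short of the cut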
BJeLR lethal – kills HRASV12-expressing BJeLR cells | AID 1554 | inhibition, % (concentration not given with the values) | 300,000 tested, 0.17% active | BJeLR (HRASV12) viability, CellTiter-Glo ATP luminescence, 48 h; reference of the scale not given here;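 active = replicate mean above 50%; inconclusive = above 50% but judged a plate artefact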;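 also: 50 nL library stock added to about 25 µL; numbers are from one replicate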
Bead autofluor – compound fluorescence in toxin protease inhibitor counterscreen. compound autofluorescence counterscreen, microsphere flow cytometry; stronger effect = higher value. fluorescence intensity (test concentration not listed). 360,000 tested, 3.1% active. AID 624483;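 active = at least 3 SD above the mean of all compounds, about 16000 in these data; inconclusive = too few beads counted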;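 also: 100 nL of 1 mM stock went into each well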
RN4220 kill – S. aureus RN4220 growth inhibition; OD600, 16 h; inhibition, % (test concentration not listed); 330,000 tested, 0.33% active; AID 1259311;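 active = z-score of -3 or lower and OD600 up to 0.18 on both plates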;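 also: plate controls were untreated cells for no effect and reference antibiotic for full effect; stock transfer was 100 nL into about 80 µL; one replicate is shown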
PrP 5UTR inh – inhibition of PrP 5' UTR reporter expression. cell-based PrP 5' UTR mRNA reporter, plate reader. inhibition, % (no concentration beside the values). 340,000 tested, 0.35% active. AID 488862;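 active = every replicate at 50% or more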;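 also: 0 = median of the neutral control wells; tested in H4 reporter cells; numbers are from one replicate; inactives centre near -14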
ugtP null kill – compounds lethal to S. aureus RN4220 ugtP deletion mutant; growth inhibition, % (test concentration not listed); OD600 growth, 16 h; some inactives read as strong as hits; 330,000 tested, 0.54% active;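 active = z-score under -3 and OD600 up to 0.15 on both plates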;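 also: plate controls were untreated wells for no effect and antibiotic for full effect; wells of about 80 µL received 100 nL stock; the first replicate is given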
Mtb hypoxia rep growth – also measured in Mtb hypoxia rep; calls as there; growth inhibition, %; measured here: M. tuberculosis growth (absorbance);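 0% = vehicle and 100% = reference antibiotic; read after six days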
Starred values were filed as active, the others as inactive; ? = inconclusive; . = not tested or not shown.

SMILES	Mtb hypoxia rep	Mtb hypoxia rep growth	BJeLR lethal	Bead autofluor	RN4220 kill	PrP 5UTR inh	ugtP null kill
COc1cc(OC)c(OC)cc1C=NNC(=O)c1cc(-c2cccn2C)n[nH]1	12	13	.	.	3.4	.	-11
COc1ccccc1N(Cc1ccccc1)S(=O)(=O)c1cccc(C(=O)Nc2ccc(C)cn2)c1	-8	5	0	?	5.5	-14	-8
COc1ccc(-c2nnc3sc(C(C)N4C(=O)c5ccccc5C4=O)nn23)cc1 (stereo not drawn)	.	.	-5	4658	2.1	-29	1
COCCN(CC(=O)Nc1ccccc1C)S(=O)(=O)c1ccc(S(=O)(=O)N2CCCC2)cc1	13	14	-11	3961	4.6	-16	-3
O=C(O)CSCC(=O)N1CCCN(c2ccc(C(F)(F)F)cn2)CC1	-1	-5	-3	4126	2.8	-5	-4
Nc1nc2ncc(CNc3ccc(C(=O)N[C@@H](CCC(=O)O)C(=O)O)cc3)nc2c(=O)[nH]1	.	.	-2	5542	0.0	-13	5
O=C(NCc1ccccc1)c1cnc2n(c1=O)CCS2	7	3	-1	3262	3.0	-5	7
CC1CCCCC1NS(=O)(=O)c1ccc(S(=O)(=O)NCc2ccncc2)cc1 (stereo not drawn)	2	2	10	.	2.1	.	-8
Cc1oc(-c2ccccc2Cl)nc1CS(=O)CC(=O)NCc1cccs1 (stereo not drawn)	-1	-5	-11	6727	-15	-16	-7
CCn1nc(C)c(NC(=O)c2ccc(Cl)cc2)c1C	9	5	0	3146	5.1	-40	8
CCC1(CC)Cc2ccccc2C(N)=C1C#N	9	10	10	3227	-5.7	-3	-23
O=C(O)c1ccc2c(=O)n3c(nc2c1)/C(=C/c1ccccc1C(F)(F)F)CCCC3	4	-11	-6	2455	1.9	-11	-4
CCCCn1c(SCC(=O)N2CCCC2)nc2cc(S(N)(=O)=O)ccc21	5	15	-6	3828	2.5	-23	2
O=C(CSc1nnc(-c2c[nH]c3ccccc23)o1)c1ccc(-c2ccccc2)cc1	4	-1	-31	2063	20	-37	-9
COC(=O)CN1C(=S)N(c2ccc(Cl)cc2)C(=O)C1CC(=O)Nc1ccc(F)cc1 (stereo not drawn)	-17	4	-5	2200	2.5	-40	5
O=S(=O)(c1ccc(S(=O)(=O)N2CCN(C/C=C/c3ccccc3)CC2)cc1)N1CCCC1	.	.	1	4290	2.2	-4	2
COCC(=O)N1CCC(Oc2cccc(C(=O)NCc3ccccn3)c2)CC1	.	.	0	6032	.	-16	.
CC(C)=CC(=O)N1CCC(N2CCC(C(=O)NCC3CCCO3)CC2)CC1 (stereo not drawn)	.	.	-11	4388	.	-5	.
O=C(NNC(=O)c1ccc(S(=O)(=O)N2CCCCC2)cc1)c1ccccc1	-2	1	-6	3573	5.2	-34	4
COc1ccccc1NC(=S)NCCc1ccc(F)cc1	9	-2	-3	4488	0.4	-29	-2
CCC(C)Sc1nc2c(c(=O)[nH]c(=O)n2C)n1CCc1ccccc1 (stereo not drawn)	.	.	-12	4504	5.2	-11	-10
COc1ccc(S(=O)(=O)N2CCOC23CCN(S(=O)(=O)c2cc(C)ccc2OC)CC3)cc1	1	10	4	5957	3.5	-14	6
O=C(NNS(=O)(=O)c1ccccc1F)c1sccc1-n1cccc1	11	9	1	3493	6.7	-14	4
Fc1ccccc1OCCn1c(=S)[nH]c2ccccc21	1	-2	-10	3924	2.3	-8	0
CCOC(=O)CCNC(=O)N1CCCC(CCC(=O)N(C)CCc2ccccn2)C1 (stereo not drawn)	1	-6	-1	2142	5.2	-8	5
COc1ccc(NC(=O)CSc2nncn2N)c(OC)c1	-5	-1	2	3624	5.4	-23	6
COc1cc(C)nc(N(Cc2ccccc2)S(=O)(=O)c2ccccc2)n1	.	.	-2	2072	8.6	-12	9
Cc1cc(NC(=O)C(C)SCC(=O)OCC(=O)N(Cc2ccccc2)C(C)(C)C)no1 (stereo not drawn)	4	-12	4	7297	3.2	-1	1
O=C(O)CCn1[nH]c(=O)c2ccccc2c1=O	9	10	-1	3527	3.3	1	4
CC(=O)Nc1cccc(Cn2cccn2)c1	-18	2	-7	.	-3.1	.	-5
CS(=O)(=O)C1=NN2C(=N)/C(=C\c3ccc(OC(=O)c4ccco4)cc3)C(=O)N=C2S1	11	6	-8	4835	9.8	0	5
CN(N=Cc1ccncc1)C1=NCCN1	-2	9	.	.	2.6	.	3
CCOc1ccc(S(=O)(=O)NCC(c2ccc3c(c2)OCO3)N2CCN(C)CC2)cc1 (stereo not drawn)	2	-5	-4	4233	2.7	-19	8
O=C1CC(N(O)c2ccccc2)C(=O)N1Cc1ccccc1 (stereo not drawn)	2	3	3	8329	-0.6	-13	-12
OC(CNCC1CCCO1)Cn1c2ccccc2c2ccccc21 (stereo not drawn)	.	.	1	5449	-0.7	-10	-9
Cc1cc(O)c(C(C)C)cc1NC(=O)Nc1ccc([N+](=O)[O-])cc1	8	1	.	3115	-2.2	23	2
CCCn1c(SCc2ccc(Cl)cc2)nc2c1c(=O)[nH]c(=O)n2C	.	.	-5	4978	-2.3	-14	16
O=C(Nc1ccc2ccccc2c1)NC1CCS(=O)(=O)C1 (stereo not drawn)	14	2	-2	2247	0.7	-38	3
COc1ccc(OC)c(C(O)c2nc3ccccc3n2C(C)C)c1 (stereo not drawn)	.	.	-1	3659	0.7	-11	-1
CCOC(=O)c1nc(Nc2ccc(Nc3ccccc3)cc2)c2ccccc2n1	4	2	6	4228	-2.0	-5	-27
CCC(CC)C(=O)Nc1ccc(Cl)c(Cl)c1	.	.	-5	2980	-0.8	-10	-18
CN(C)c1ccc(/C=C/C=N/Nc2nc(N3CCOCC3)nc(N3CCOCC3)n2)cc1	.	.	-4	4536	.	-10	.
COc1ccc(NC(=O)CSc2nc3ccccc3nc2N2CCOCC2)c(OC)c1	6	5	2	6106	-7.4	-5	-4
CCOC(=O)C1=C(C)NC(SCC(=O)O)=C(C#N)C1c1ccco1 (stereo not drawn)	4	5	5	2398	1.8	-17	2
COc1ccccc1NC(=O)COC(=O)c1ccc2c(c1)nc(C)n2-c1ccccc1	5	-3	-1	2288	12	-33	1

Compounds from the list above that contain a CF3 group (two):
SMILES	Mtb hypoxia rep	Mtb hypoxia rep growth	BJeLR lethal	Bead autofluor	RN4220 kill	PrP 5UTR inh	ugtP null kill
O=C(O)CSCC(=O)N1CCCN(c2ccc(C(F)(F)F)cn2)CC1	-1	-5	-3	4126	2.8	-5	-4
O=C(O)c1ccc2c(=O)n3c(nc2c1)/C(=C/c1ccccc1C(F)(F)F)CCCC3	4	-11	-6	2455	1.9	-11	-4

Later entries:
SMILES	Mtb hypoxia rep	Mtb hypoxia rep growth	BJeLR lethal	Bead autofluor	RN4220 kill	PrP 5UTR inh	ugtP null kill
c1ccc(C2c3[nH]c4ccccc4c3CCN2Cc2cccn2-c2cccnc2)nc1 (stereo not drawn)	-10	6	-11	4884	-5.1	-10	-7
CCOC(=O)C1CCN(S(=O)(=O)c2c(C)noc2C)CC1	2	0	-10	5509	0.8	-6	1
CCOC(=O)C(=NNc1ccccc1Cl)N(C)C1CCCCC1	-5	-1	.	.	1.9	.	10
CC(=NNc1ccc([N+](=O)[O-])cc1)c1ccc(O)cc1	17	7	.	.	9.2	.	-1
CN(C)c1nc(NN=Cc2c[nH]c3ccccc23)nc(N2CCOCC2)n1	13	10	.	.	-2.7	.	3
O=C1CCCN1c1ccc(S(=O)(=O)NCc2ccco2)cc1	-12	-1	-1	3454	7.7	-19	0
O=C(c1ccc(-c2ccccc2)cc1)C1CCCN(Cc2ccn[nH]2)C1 (stereo not drawn)	0	6	-2	2461	0.6	-26	61
CC1CN(C(=O)/C=C/c2ccc([N+](=O)[O-])s2)CC(C)O1 (stereo not drawn)	11	12	-8	4299	44	-21	7
Cc1ccc(C(=O)N2CC(=O)NC(=O)C2)cc1	.	.	-1	4962	.	-9	.
N#CCCN(Cc1cccnc1)C(=S)Nc1ccc(OC(F)F)cc1	9	9	0	4308	1.0	-20	7
O=C(Cn1c(C(F)(F)F)nc2ccccc21)N/N=C/c1ccco1	.	.	-6	2301	.	-28	.
COc1ccc(CCNC(=O)Cn2c(=O)n(-c3ccc(C)c(F)c3)c(=O)c3sccc32)cc1OC	13	6	-1	6326	4.4	-22	5
C=C(C)CSc1nnc([C@@H]2CCCN2)o1	16	7	-6	4760	2.5	-13	-1
C=CCC[C@@H](Cc1ccc(F)cc1)C(=O)OCCNC(=O)[C@@H](CC=C)CC(=O)N[C@@H](CO)Cc1ccccc1	2	4	.	3528	2.6	-6	8
CC(C)=CCN1CCN(Cc2cccc3c2OCO3)CC1CCO (stereo not drawn)	3	8	8	3914	2.0	-10	0
COc1ccc2ccccc2c1C=NNc1ccc(Cl)c(C(=O)O)c1	4	7	.	.	4.9	.	-6
Cc1cc2nn(-c3ccc(F)cc3)nc2cc1N	15	3	2	3249	-4.1	-23	-7
CCOC(=O)Cc1nnc(NC(=O)C(CC)Sc2nncn2C)s1 (stereo not drawn)	13	8	-7	4519	2.9	5	5
C/C(C=NNc1nc(N2CCCCC2)nc(N2CCCCC2)n1)=C\c1ccccc1	-11	0	.	.	-2.1	.	-1
CCOc1ccc(S(=O)(=O)Nc2ccc(C(=O)NCC(c3ccccc3)N(C)C)cc2)cc1 (stereo not drawn)	-2	-3	-7	5599	-2.1	-10	13
COc1ccc(/C=N/NC(=O)Nc2cccc3nsnc23)cc1	.	.	-4	9766	.	-35	.
CCCCNc1c([N+](=O)[O-])cc(C(=O)O)cc1[N+](=O)[O-]	-6	-1	0	7355	9.0	-9	8
COc1ccc(NC(=O)c2cc(S(=O)(=O)N3CCCCC3)c[nH]2)cc1	8	9	0	5829	-0.1	-1	-1
Nc1cc(=O)[nH]c(=O)n1CCCc1ccccc1	.	.	-18	3606	.	-21	.
O=C(O)[C@H](Cc1ccccc1)NC(=O)N1CCOCC1	.	.	-2	2969	.	-21	.
Cc1ccccc1NC(=O)C1CCCN(C(=O)NCc2ccccc2)C1 (stereo not drawn)	8	3	-7	5182	0.1	-23	12
CCN(CC)CC(=O)Nc1scc2c1c(=O)oc1ccccc12	-4	0	9	3811	2.1	-55	-9
COc1ccc(C=NNC(=O)c2nn(C)cc2Cl)cc1CN1CCOCC1	-1	1	.	.	4.5	.	7
COc1ccc(C(CCN2CCCC2)c2c(OC)cc(OC)c3c(-c4ccccc4)cc(=O)oc23)cc1 (stereo not drawn)	-6	5	4	4689	-6.9	-4	0
Cc1nn(C)c(Cl)c1C(=O)NC(C(=O)O)c1ccccc1 (stereo not drawn)	-4	8	-1	4280	6.5	-73	11
CN(C)CCCN=Cc1c(O)n(CCc2ccc(F)cc2)c(=O)[nH]c1=O	4	8	3	8945	2.8	-20	1
O=C1CCC(=O)N1c1ccc(S(=O)(=O)Nc2cccc(Br)c2)cc1	.	.	-2	3438	.	-10	.
COc1cccc(CN(C(=O)c2cccs2)C2CCS(=O)(=O)C2)c1 (stereo not drawn)	-9	-7	6	5754	-3.0	-24	-7
O=C(/C=C/c1ccco1)NC1=NCCS1	-4	-13	-7	7261	0.7	-54	9
CCOC(=O)Nc1cccc(Nc2ccccc2)c1	8	2	3	5350	-2.4	-26	-1
COc1ccc(N(CC(=O)N2CCOCC2)S(=O)(=O)c2ccccc2)cc1Cl	0	-11	0	?	2.4	-5	-3
O=C(Cn1c(NCCO)nc2ccccc21)c1ccc([N+](=O)[O-])cc1	2	14	-6	3825	8.5	.	4
O=C(CCC(=O)N1CCN(C(=O)c2ccco2)CC1)c1ccc(F)cc1	5	-1	3	4748	2.8	-28	5
CCOC(=O)C1CCN(S(=O)(=O)c2ccc(NC(=O)OC)cc2)CC1	.	.	6	3158	0.4	4	-3

Shown as comma-separated lines: entries from further up
canonical_smiles,Mtb hypoxia rep,Mtb hypoxia rep growth,BJeLR lethal,Bead autofluor,RN4220 kill,PrP 5UTR inh,ugtP null kill
CC(C)=CCN1CCN(Cc2cccc3c2OCO3)CC1CCO (stereo not drawn),3,8,8,3914,2.0,-10,0
COc1ccc2ccccc2c1C=NNc1ccc(Cl)c(C(=O)O)c1,4,7,.,.,4.9,.,-6
Cc1cc2nn(-c3ccc(F)cc3)nc2cc1N,15,3,2,3249,-4.1,-23,-7
CCOC(=O)Cc1nnc(NC(=O)C(CC)Sc2nncn2C)s1 (stereo not drawn),13,8,-7,4519,2.9,5,5
C/C(C=NNc1nc(N2CCCCC2)nc(N2CCCCC2)n1)=C\c1ccccc1,-11,0,.,.,-2.1,.,-1
